High-throughput results: PubChem, Broad Institute
NOMO-1 viab: NOMO-1 AML cell viability reduction, primary screen, STK33 inhibitor project, CellTiter-Glo luminescence | NOMO-1 AML viability, 72 h | inhibition, % (no concentration beside the values) | actives 7.5% (n = 37,000);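 active = most replicates above 80%; inconclusive = exactly half above 80%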;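 note: wells of about 30 µL received 25 nL stock; 0% = median of vehicle wells and 100% = reference inhibitor level; the first replicate is given; inactives centre near 10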
Active calls of the source: *; ? = inconclusive. The list is partial (hit frequency here may not be typical).

canonical_smiles,NOMO-1 viab
COc1ccc(S(=O)(=O)Nc2ccc3c(c2)C(=O)N([C@H](C)CO)C[C@H](C)[C@@H](CN(C)C(=O)Cc2ccccc2)OCCCC[C@@H](C)O3)cc1,15.5
Cc1cc(C(=O)NCCCn2ccnc2)sc1-c1ccccc1,?
Cc1cccc(C)c1NC(=O)C(C)N(c1ccc(Cl)cc1)S(C)(=O)=O (stereo unspecified),-16.6
C[C@H]1CN([C@@H](C)CO)C(=O)c2cc(NC(=O)Cc3cn(C)c4ccccc34)ccc2O[C@H]1CN(C)C(=O)Nc1ccccc1,28.9
C[C@@H]1CN([C@H](C)CO)C(=O)c2cccc(NC(=O)Nc3ccc(F)cc3)c2O[C@H]1CN(C)Cc1ccccc1,99.5*
CC(=O)Nc1ccc(NC(=O)CN(C)S(=O)(=O)c2ccc(Br)cc2)cc1,27.6
C[C@H](CO)N1C[C@H](C)[C@H](CN(C)Cc2ccc(C(F)(F)F)cc2)Oc2ccc(NC(=O)Cc3ccccc3)cc2C1=O,9.4
CCOC(=O)C1=C(C)Nc2ncnn2C1c1ccco1 (stereo unspecified),12.1
C[C@@H]1CN([C@H](C)CO)C(=O)c2cc(NS(=O)(=O)c3ccccc3)ccc2O[C@@H]1CN(C)S(=O)(=O)c1ccccc1,12.1
C[C@H]1CN([C@@H](C)CO)C(=O)c2cc(NS(=O)(=O)c3ccc(Cl)cc3)ccc2O[C@@H]1CN(C)CC1CCCCC1,18.1
O=C(COc1ccc(Cl)cc1)CC(=O)c1ccc(Cl)cc1,109.9*
COc1ccc(-c2cc(C(F)(F)F)nc(SCC(=O)Nc3ccc4c(c3)CCC4)n2)cc1OC,71.0
CC(=O)c1cccc(NC(=O)C2CCCN(S(=O)(=O)c3ccccc3)C2)c1 (stereo unspecified),21.6
Cc1noc(C)c1S(=O)(=O)Nc1ccc2c(c1)CC(=O)N([C@H](C)CO)C[C@@H](C)[C@@H](CN(C)Cc1ccccc1)O2,20.5
C[C@H](CO)N1C[C@H](C)[C@H](CN(C)Cc2ccncc2)Oc2ccc(NC(=O)C3CC3)cc2CC1=O,-9.9
Cc1noc(C)c1NC(=O)Nc1ccc2c(c1)C(=O)N([C@H](C)CO)C[C@H](C)[C@H](CN(C)Cc1ccccc1)O2,14.9
Cc1ccccc1C(=O)Nc1cccc(NC(=O)COc2ccccc2Cl)c1,6.5
CCCN(C)C[C@@H]1OCCCC[C@@H](C)Oc2ccc(NC(=O)Nc3ccc(F)cc3)cc2C(=O)N([C@H](C)CO)C[C@@H]1C,-7.6
Cc1noc(C)c1NC(=O)N(C)C[C@H]1Oc2ccc(NC(=O)Cn3cnnn3)cc2CC(=O)N([C@@H](C)CO)C[C@H]1C,-2.3
CC(C)(C)NC(=O)CSc1ccc(Cl)cc1,26.4
O=C1CC(C(=O)Nc2ccc3c(c2)OCCO3)n2ncnc2N1 (stereo unspecified),-11.6
CNC[C@H]1Oc2ccc(NC(=O)NC(C)C)cc2CC(=O)N([C@@H](C)CO)C[C@H]1C,13.3
C[C@@H]1CN([C@H](C)CO)C(=O)c2cccc(NC(=O)c3cnccn3)c2O[C@H]1CN(C)Cc1ccc(Cl)c(Cl)c1,95.8*
Cc1noc(C)c1NC(=O)Nc1ccc2c(c1)CC(=O)N([C@@H](C)CO)C[C@H](C)[C@@H](CN(C)S(=O)(=O)c1ccc(F)cc1)O2,5.0
Cc1cc(C(=O)Nc2cccc3c2O[C@H](CN(C)Cc2ccc4c(c2)OCO4)[C@@H](C)CN([C@@H](C)CO)C3=O)n(C)n1,14.3
CC(C)NC(=O)Nc1ccc2c(c1)C(=O)N([C@H](C)CO)C[C@H](C)[C@@H](CN(C)Cc1ccc(C(F)(F)F)cc1)O2,20.4
COc1cc(NC(=O)COc2ccccc2OC)cc(OC)c1,-15.2
C[C@H]1CN([C@@H](C)CO)C(=O)c2cc(NC(=O)Nc3ccc4c(c3)OCO4)ccc2O[C@@H]1CN(C)S(=O)(=O)c1cn(C)cn1,4.5
COc1ccc(OC(C)C(=O)NCC2CCCO2)cc1 (stereo unspecified),-4.6
Cn1c(=O)c(C(=O)NCCO)c(O)c2ccccc21,-10.3
COc1cc(O)c2c(c1)O[C@H](c1ccc(O)c(O)c1)[C@@H](OC(C)=O)C2=O,64.8
COc1ccc(NC(=O)Nc2nn(Cc3c(F)cccc3Cl)cc2Cl)cc1OC,26.5
Cc1cccc(OCC(O)Cn2cnc3ccccc32)c1 (stereo unspecified),40.6
CS(=O)(=NS(=O)(=O)c1cc(S(=O)(=O)c2ccccc2)cs1)c1ccc(Cl)cc1 (stereo unspecified),11.3
O=C(O)c1cccc(NC(=O)c2ccc3c(c2)C(=O)N(Cc2cccnc2)C3=O)c1,-8.9
CN(CC(=O)Nc1ccc([N+](=O)[O-])cc1)S(=O)(=O)c1cc(Cl)ccc1Cl,16.5
C[C@@H]1CN([C@@H](C)CO)C(=O)Cc2cc(NS(=O)(=O)c3ccccc3)ccc2O[C@@H]1CN(C)S(=O)(=O)c1ccccc1,5.5
C[C@@H]1CCCCO[C@@H](CN(C)C(=O)Nc2ccccc2)[C@@H](C)CN([C@H](C)CO)C(=O)c2cc(NS(=O)(=O)c3ccc(F)cc3)ccc2O1,19.6
COc1ccc(NC(=O)Nc2ccc3c(c2)C(=O)N([C@H](C)CO)C[C@H](C)[C@@H](CN(C)S(=O)(=O)c2cn(C)cn2)OCCCC[C@@H](C)O3)cc1,6.9
O=[N+]([O-])c1ccc(CSc2nnc(-c3ccccn3)n2-c2ccccc2)cc1,7.4
CN1C(=O)c2cccc(NC(=O)C3COc4ccccc4O3)c2C1=O (stereo unspecified),-1.8
Cc1noc(C)c1NC(=O)N(C)C[C@@H]1Oc2ccc(NC(=O)Nc3ccccc3)cc2C(=O)N([C@H](C)CO)C[C@@H]1C,3.4
C=C(C(=O)O[C@H]1C/C(C)=C\CC/C(CO)=C\[C@H]2OC(=O)C(=C)[C@H]12)C(O)CO (stereo partly specified),19.2
COc1ccc(S(=O)(=O)N(C)C[C@H]2Oc3ccc(NC(=O)CCC(F)(F)F)cc3C(=O)N([C@H](C)CO)C[C@@H]2C)cc1,14.5
Cc1cc(C)nc(SC(C)C(=O)Nc2ccccc2)n1 (stereo unspecified),-4.0
Cc1nc(SCC(=O)c2ccccc2)c2sc3nc4c(cc3c2n1)COC(C)(C)C4,0.8
CC(C)NC(=O)N(C)C[C@H]1OCCCC[C@@H](C)Oc2ccc(NC(=O)Nc3ccc(F)cc3)cc2C(=O)N([C@H](C)CO)C[C@@H]1C,23.8
C[C@@H]1CN([C@H](C)CO)C(=O)c2cccc(NC(=O)c3ccncc3)c2O[C@@H]1CN(C)S(=O)(=O)c1cccs1,19.6
CC(C)NC(=O)Nc1ccc2c(c1)CC(=O)N([C@H](C)CO)C[C@@H](C)[C@H](CN(C)Cc1ccc(-c3ccccc3)cc1)O2,21.2
CC1OC(OC2C(O[C@H]3OC[C@](O)(CO)[C@H]3O)COC(O[C@@H]3[C@@H](O)[C@@H](O)[C@H](OC4C(OC(=O)[C@]56CCC(C)(C)CC5C5=CCC7[C@@]8(C)C[C@H](O)[C@H](OC9OC(CO)C(O)C(O)C9O)[C@@](C)(CO)C8[C@H](O)C[C@@]7(C)[C@]5(C)CC6)OCC(O)C4O)O[C@H]3C)C2O)C(O)C(O)C1O (stereo partly specified),76.1
Cc1cc(OCC(=O)Nc2ccccc2-c2nc3ccccc3s2)ccc1Cl,-2.9
Cc1ccc2cccc(S(=O)(=O)NC3CCS(=O)(=O)C3)c2n1 (stereo unspecified),11.2
Cc1cc(=O)[nH]c(SCC(=O)Nc2c(C)cccc2C)n1,7.1
CC(C)(C)c1ccc(OCCn2c(CO)nc3ccccc32)cc1,56.9
Cc1ccc(S(=O)(=O)N(C)C[C@@H]2Oc3ccc(NS(=O)(=O)c4c(C)noc4C)cc3C(=O)N([C@@H](C)CO)C[C@@H]2C)cc1,14.7
CS(=O)(=O)Nc1ccccc1C(=O)NCc1ccco1,-10.3
COc1ccc(C(=O)Cn2c3ccccc3n3nc(-c4ccccc4)nc23)cc1OC,-8.1
CC(C)C1NC(=O)C(CC2(O)c3ccccc3N3C(=O)C(Cc4ccccc4)NC32)NC1=O (stereo unspecified),11.1
Cc1ccc(S(=O)(=O)Nc2ccc3c(c2)CC(=O)N([C@H](C)CO)C[C@H](C)[C@H](CN(C)CC2CCCCC2)O3)cc1,98.6*
COc1ccc(NC(=O)N(C)C[C@@H]2Oc3c(NC(=O)C4CCOCC4)cccc3C(=O)N([C@@H](C)CO)C[C@H]2C)cc1,-2.4

Next entries
canonical_smiles,NOMO-1 viab
C[C@@H]1CN([C@@H](C)CO)C(=O)c2cc(NC(=O)Cc3cn(C)c4ccccc34)ccc2O[C@H]1CN(C)C,21.2
Cc1noc(C)c1S(=O)(=O)Nc1ccc2c(c1)C(=O)N([C@@H](C)CO)C[C@H](C)[C@H](CN(C)C(=O)Nc1ccccc1)O2,-1.8
CCC1CCc2c(sc3ncnc(N4CCOCC4)c23)C1 (stereo unspecified),70.8
C[C@@H]1CN([C@@H](C)CO)C(=O)c2cc(NC(=O)Cn3cnnn3)ccc2O[C@@H]1CN(C)Cc1ccc2c(c1)OCO2,0.8
COc1ccc(CN(C)C[C@H]2Oc3ccc(NC(=O)Nc4cccc5ccccc45)cc3CC(=O)N([C@H](C)CO)C[C@H]2C)cc1,42.0
Cc1ccc(C(C)C)c(OCc2ccc(C(=O)Nc3sc4c(c3C#N)CCCC4)o2)c1,-0.6
Cc1noc(C)c1NC(=O)Nc1ccc2c(c1)C(=O)N([C@@H](C)CO)C[C@@H](C)[C@@H](CN(C)Cc1ccncc1)O2,25.1
C[C@@H]1CCCCO[C@H](CN(C)Cc2ccc3c(c2)OCO3)[C@@H](C)CN([C@H](C)CO)C(=O)c2cc(NS(=O)(=O)c3cccs3)ccc2O1,62.2
C[C@@H]1CN([C@H](C)CO)C(=O)Cc2cc(NC(=O)Nc3ccc4c(c3)OCO4)ccc2O[C@H]1CN(C)CC1CC1,-2.9
COc1ccc(NC(=O)N(C)C[C@@H]2Oc3ccc(NS(=O)(=O)c4ccccc4)cc3C(=O)N([C@@H](C)CO)C[C@@H]2C)cc1,-0.4
C[C@@H]1CN([C@@H](C)CO)C(=O)Cc2cc(NS(=O)(=O)c3ccc(F)cc3)ccc2O[C@@H]1CN(C)C(=O)Nc1ccccc1,6.8
CC(C)NC(=O)Nc1ccc2c(c1)C(=O)N([C@H](C)CO)C[C@@H](C)[C@H](CN(C)Cc1ccc(C(=O)O)cc1)O2,-3.0
C[C@H](CO)N1C[C@H](C)[C@H](CN(C)S(=O)(=O)c2ccc(F)cc2)Oc2c(NS(=O)(=O)c3cn(C)cn3)cccc2C1=O,10.3
C[C@@H]1CN([C@@H](C)CO)C(=O)c2cccc(NC(=O)Nc3ccc(F)cc3)c2O[C@H]1CN(C)Cc1ccc(Oc2ccccc2)cc1,?
N#CCCN(Cc1ccco1)S(=O)(=O)c1ccccc1,-5.9
N=C1S/C(=C/c2ccccc2)C(=O)N1c1nonc1N,27.9
C[C@@H]1CN([C@H](C)CO)C(=O)c2cccc(NC(=O)Nc3ccccc3)c2O[C@H]1CN(C)C(=O)Nc1ccccc1,-1.2
O=C(C1c2ccccc2Oc2ccccc21)N1CCCc2ccccc21,50.7
COc1ccc(CCNC(=O)Nc2ccc(C(C)=O)cc2)cc1OC,11.6
Cc1nnc(SCC(=O)Nc2ccccc2N2CCOCC2)s1,2.1

Reformatted with each value named: entries from further up.
> CCCN(C)C[C@@H]1OCCCC[C@@H](C)Oc2ccc(NC(=O)Nc3ccc(F)cc3)cc2C(=O)N([C@H](C)CO)C[C@@H]1C
  NOMO-1 viab = -7.6
> Cc1noc(C)c1NC(=O)N(C)C[C@H]1Oc2ccc(NC(=O)Cn3cnnn3)cc2CC(=O)N([C@@H](C)CO)C[C@H]1C
  NOMO-1 viab = -2.3
> CC(C)(C)NC(=O)CSc1ccc(Cl)cc1
  NOMO-1 viab = 26.4
> O=C1CC(C(=O)Nc2ccc3c(c2)OCCO3)n2ncnc2N1 (stereo unspecified)
  NOMO-1 viab = -11.6

Following part.
canonical_smiles,NOMO-1 viab
Cc1ccc(S(=O)(=O)N(C)C[C@@H]2Oc3c(NS(=O)(=O)c4ccc(Cl)cc4)cccc3C(=O)N([C@H](C)CO)C[C@@H]2C)cc1,?
CC(C)NC(=O)Nc1ccc2c(c1)C(=O)N([C@H](C)CO)C[C@H](C)[C@H](CN(C)C(=O)Nc1ccccc1)O2,2.0
COc1ccc(S(=O)(=O)Nc2ccc3c(c2)CC(=O)N([C@@H](C)CO)C[C@H](C)[C@H](CN(C)S(=O)(=O)c2ccc(Cl)cc2)O3)cc1,1.1
CC1(C)CC(NC(=O)/C=C/C(=O)NC2CC(C)(C)NC(C)(C)C2)CC(C)(C)N1,17.2
CCN(CC(=O)Nc1cccc(SC)c1)S(=O)(=O)c1ccc2ccccc2c1,1.9
COC(=O)c1ccccc1NC(=O)CNC(=O)c1ccc(Cl)cc1Cl,-21.0
Cc1ccc(S(=O)(=O)Nc2ccc3c(c2)C(=O)N([C@H](C)CO)C[C@H](C)[C@@H](CN(C)S(=O)(=O)c2ccccc2)OCCCC[C@@H](C)O3)cc1,20.2
COc1ccc(NC(=O)Nc2ccc3c(c2)CC(=O)N([C@H](C)CO)C[C@@H](C)[C@@H](CN(C)S(=O)(=O)c2ccc(F)cc2)O3)cc1,47.1
